High-throughput results from PubChem.
FGF22 binding – shifts melting point of recombinant human FGF22; Q9HCT0; 1.5% of 340,000 active; recombinant FGF22 thermal shift, SYPRO orange fluorescence; percent of sucrose octasulfate shift, DMSO zero; AID 651658; calls only at 9.99 µM;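 active = melting point raised past a set limit in the mean and every replicate; three in four hits are not shown here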
Target sequence (Q9HCT0 whole entry, looked up): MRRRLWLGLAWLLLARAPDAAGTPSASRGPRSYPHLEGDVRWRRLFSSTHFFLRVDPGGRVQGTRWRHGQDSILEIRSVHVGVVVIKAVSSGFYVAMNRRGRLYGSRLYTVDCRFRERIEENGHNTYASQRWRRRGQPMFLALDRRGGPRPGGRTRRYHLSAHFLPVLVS
MLL AF4-AF9 inh – inhibitors of human MLL-AF4/AF9 interaction | P42568 | AlphaScreen, biotin-AF4 peptide binding to FLAG-AF9 | inhibition, % at 10 µM | 0.47% of 350,000 active;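 active = every replicate reaching a set inhibition limit, whatever the replicate mean, cut at about 25% in these data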;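 also: 0% = plate neutral control median and 100% = total signal loss; the record names both 10 and 1 µM as test concentration; the first replicate is given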
Target sequence (P42568 whole entry, looked up): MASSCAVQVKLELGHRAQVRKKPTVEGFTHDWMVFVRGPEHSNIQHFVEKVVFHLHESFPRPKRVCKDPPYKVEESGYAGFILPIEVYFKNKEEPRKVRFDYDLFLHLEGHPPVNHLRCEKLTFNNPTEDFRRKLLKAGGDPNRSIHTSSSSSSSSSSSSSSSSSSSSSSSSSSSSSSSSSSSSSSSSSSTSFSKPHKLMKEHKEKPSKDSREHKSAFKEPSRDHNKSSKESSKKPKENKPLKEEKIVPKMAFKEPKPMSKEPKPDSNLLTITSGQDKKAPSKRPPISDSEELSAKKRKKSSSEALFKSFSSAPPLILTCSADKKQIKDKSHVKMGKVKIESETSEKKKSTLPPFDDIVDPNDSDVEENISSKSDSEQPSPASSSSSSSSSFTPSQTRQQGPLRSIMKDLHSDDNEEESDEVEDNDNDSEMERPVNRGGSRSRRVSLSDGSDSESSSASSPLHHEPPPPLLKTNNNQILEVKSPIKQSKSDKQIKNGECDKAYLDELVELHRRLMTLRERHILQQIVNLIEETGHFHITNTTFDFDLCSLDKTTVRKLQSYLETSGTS
Ecoli rRNA inh – inhibitors of bacterial rRNA selective over humanized ribosomes; E. coli WT GFP vs humanized-ribosome RFP mutants, fluorescence, 24 h; active compounds read low; DMSO median 0, no signal -100; GFP signal change (wild-type ribosome), % (no concentration beside the values); 1.6% of 350,000 active;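 active = significant combined selectivity score with lowered wild-type GFP, culture density cut under 30%, mutant RFP and density less affected; inactive = any of these conditions unmet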; also: one replicate is shown; some compounds called inactive have numbers as strong as hits
Ecoli rRNA inh OD600 – further read-out of Ecoli rRNA inh, marked with its call; OD600 change, %; measured here: OD600 growth;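 optical density of the mix in the first replicate; 0 = DMSO median and -100 = no signal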
Ecoli rRNA inh RFP – also measured in Ecoli rRNA inh; calls as there; RFP signal change, %; measured here: RFP humanized mutant strains;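 first replicate; 0 = DMSO median and -100 = no signal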
* marks the source's active call; other numbers are inactive results; i = inactive. Only part of the results is shown, so the mix of outcomes need not match the whole.

SMILES | FGF22 binding | MLL AF4-AF9 inh | Ecoli rRNA inh | Ecoli rRNA inh OD600 | Ecoli rRNA inh RFP
CNC[C@H]1OCCCC[C@H](C)Oc2ccc(N(C)C)cc2C(=O)N([C@H](C)CO)C[C@H]1C | i | 8.0 | 4 | 0 | -1.1
C[C@@H]1CN([C@@H](C)CO)C(=O)c2cccc(NS(=O)(=O)c3ccccc3)c2O[C@H]1CN(C)S(=O)(=O)c1ccc(Cl)cc1 | i | -36 | -1 | -1 | 4.5
COc1ccc(NC(=O)C2Cc3c(-c4ccccc4Oc4ccccc4)ccnc3O2)cc1 (stereo not given) | i | 1.9 | -5 | -3 | 0.5
C[C@H](CO)N1C[C@H](C)[C@@H](CN(C)S(=O)(=O)c2ccccc2F)OCc2cn(nn2)CCCC1=O | i | 0.2 | -1 | 0 | 0.3
O=C(C[C@@H]1CC[C@@H](NC(=O)Nc2ccc3c(c2)OCO3)[C@H](CO)O1)NCCCN1CCOCC1 | i | -3.4 | 3 | -5 | -0.9
O=C1CCCCCCC(=O)[C@H](O)C[C@H](c2ccccc2)O1 | i | -1.2 | 4 | 19 | 4.7
COc1ccc(NC(=O)N2C[C@@H](O)COC[C@H]3O[C@@H](CC(=O)NC4Cc5ccccc5C4)CC[C@@H]32)cc1 | i | -2.9 | -3 | 0 | -0.3
C[C@H](CO)N1C[C@H](C)[C@@H](CN(C)Cc2ccc(Cl)c(Cl)c2)OCCCC[C@H](C)Oc2ccc(NC(=O)Nc3ccc4c(c3)OCO4)cc2C1=O | i | -0.6 | -4 | -11 | -6.5
CO[C@H]1CC[C@@H]2CCOc3ccc(C#N)cc3C(=O)N(C)C[C@H](C)C(=O)N(C)C[C@@H]1O2 | i | 2.0 | 2 | 9 | 0.4
CC(C)NC(=O)Nc1ccc2c(c1)C(=O)N([C@H](C)CO)C[C@H](C)[C@H](CN(C)S(=O)(=O)c1cn(C)cn1)OCCCC[C@H](C)O2 | i | -0.4 | 0 | 7 | -1.6
CC(C)c1ccc(NC(=O)C2(C)Cc3c(-c4cccc(C(N)=O)c4)ccnc3O2)cc1 (stereo not given) | i | -6.9 | -28 | -30 | -1.8
O=C1NC[C@H](Cc2ccccc2)N(C[C@H]2CCCN2C[C@H](Cc2ccc(O)cc2)N2C[C@H](Cc3ccc(O)cc3)N(CC3CCCCCC3)C(=O)C2=O)C1=O | i | 0.9 | -36 | -34 | -0.3
Cc1ccccc1Cn1c2ccccc2c2cnn(CC(=O)N3CCN(c4ccccc4)CC3)c(=O)c21 | i | -0.3 | -2 | -3 | -6.1
COc1ccccc1CNC(=O)C[C@H]1C[C@H]2c3cc(NC(=O)Nc4ccccc4F)ccc3O[C@H]2[C@H](CO)O1 | i | 0.3 | 1 | 2 | 0.4
C[C@H]1CN([C@@H](C)CO)C(=O)c2cc(-c3ccncc3)cnc2O[C@H]1CN(C)C(=O)NC1CCCC1 | i | -4.7 | -3 | -16 | -4.0
COCC(=O)Nc1ccc2c(c1)OC[C@@H](C)N(C(=O)COC)C[C@H](C)[C@H](OC)CN(C)C2=O | i | -2.9 | 2 | 1 | 2.0
CCCC(=O)Nc1ccc2c(c1)C(=O)N(C)[C@@H]1CC[C@H](CC(=O)O)O[C@H]1CO2 | i | -3.8 | 4 | 5 | 0.0
C[C@@H]1CN([C@H](C)CO)C(=O)c2cc(NC(=O)c3ccncc3)ccc2O[C@H]1CN(C)Cc1ccc(Cl)c(Cl)c1 | i | 3.6 | -2 | -7 | 0.5
COCC#Cc1cnc2c(c1)C(=O)N([C@H](C)CO)C[C@H](C)[C@H](CN(C)C(=O)Cc1cccnc1)O2 | i | -2.6 | 4 | -8 | -2.2
OC[C@H]1[C@H](c2ccc(C#Cc3ccccc3)cc2)[C@H]2CN(Cc3cncnc3)CCCCN21 | i | 2.9 | -34 | -62 | 8.2
COc1ccc(-c2ccc3c(c2)O[C@@H](CN(C)Cc2ccccc2C(=O)O)[C@@H](C)CN([C@H](C)CO)S3(=O)=O)cc1 | i | 1.8 | -3 | 1 | 1.3
C[C@@H]1CN([C@H](C)CO)C(=O)c2cc(C#CC3CCCCC3)cnc2O[C@@H]1CN(C)S(=O)(=O)c1ccccc1 | i | 0.3 | -2 | -12 | 0.5
CCN1[C@@H]2c3ccc(-c4ccccc4OC)c(=O)n3C[C@H]1[C@H](CO)[C@H]2C(=O)N[C@H](C)c1ccccc1 | i | -3.7 | 3 | 4 | 0.6
COc1ccccc1S(=O)(=O)N[C@@H]1CC[C@H](CC(=O)NCc2cccc(F)c2)O[C@@H]1CO | i | 2.1 | 4 | 6 | 3.1
CCC(=O)Nc1ccc2c(c1)OC[C@H](C)N(C(=O)NC(C)C)C[C@H](C)[C@@H](OC)CN(C)C2=O | i | -1.4 | 1 | 1 | -1.4

Looked up by structure from the list above:
SMILES | FGF22 binding | MLL AF4-AF9 inh | Ecoli rRNA inh | Ecoli rRNA inh OD600 | Ecoli rRNA inh RFP
COc1ccccc1S(=O)(=O)N[C@@H]1CC[C@H](CC(=O)NCc2cccc(F)c2)O[C@@H]1CO | i | 2.1 | 4 | 6 | 3.1
O=C1NC[C@H](Cc2ccccc2)N(C[C@H]2CCCN2C[C@H](Cc2ccc(O)cc2)N2C[C@H](Cc3ccc(O)cc3)N(CC3CCCCCC3)C(=O)C2=O)C1=O | i | 0.9 | -36 | -34 | -0.3

(more compounds)
SMILES | FGF22 binding | MLL AF4-AF9 inh | Ecoli rRNA inh | Ecoli rRNA inh OD600 | Ecoli rRNA inh RFP
C[C@H]1CN([C@@H](C)CO)C(=O)c2cc(C#CCN(C)C)cnc2O[C@H]1CN(C)C(=O)Nc1cccc(F)c1 | i | 1.6 | 5 | -2 | -0.8
O=C(N[C@H]1CC[C@H](CC(=O)N2CCOCC2)O[C@H]1CO)c1ccc2c(c1)OCO2 | i | -3.8 | 5 | 8 | -5.4
COc1ccc(NC(=O)N(C)C[C@H]2OCCCC[C@H](C)Oc3ccc(N(C)C)cc3C(=O)N([C@H](C)CO)C[C@@H]2C)cc1 | i | -2.3 | -1 | -1 | 1.4
CCOC(=O)C1(C)CCN1C(=O)c1cccc(OC(F)(F)F)c1 (stereo not given) | i | -8.5 | -3 | -6 | 1.2
C[C@@H]1CN([C@@H](C)CO)C(=O)c2c(c3ccccc3n2C)-c2ccccc2CO[C@@H]1CN(C)C(=O)N[C@H](C)c1ccccc1 | i | 2.9 | -4 | -5 | 4.6
CO[C@@H]1CN(C)C(=O)c2cc(NS(=O)(=O)c3cccc(Cl)c3)ccc2OC[C@@H](C)NC[C@@H]1C | i | -11 | 0 | 4 | -1.2
O=C(C[C@H]1CC[C@H]2[C@@H](COC[C@H](O)CN2C(=O)c2ccccn2)O1)NC1CCC1 | i | -0.9 | 0 | 3 | -2.1
C[C@H](CO)N1C[C@H](C)[C@H](CN(C)Cc2ccc(Cl)c(Cl)c2)Oc2c(NS(=O)(=O)c3cccs3)cccc2C1=O | i | 1.2 | -8 | -24 | 1.7
C[C@@H]1CN([C@H](C)CO)C(=O)c2cc(C#Cc3ccccn3)cnc2O[C@@H]1CN(C)C(=O)CCN1CCCCC1 | i | -3.1 | 5 | 3 | 0.4
CCC(=O)N1CC(=O)N2[C@H](CO)[C@@H](c3ccc(C#Cc4cccnc4)cc3)[C@H]2C1 | i | -11 | 1 | 4 | 1.7
C[C@H]1CN([C@@H](C)CO)C(=O)c2cc(NC(=O)Cc3cn(C)c4ccccc34)ccc2O[C@H]1CN(C)S(C)(=O)=O | i | 0.3 | -1 | -7 | -1.3
C[C@@H]1CN([C@@H](C)CO)C(=O)c2cc(NC(=O)c3ccccc3)ccc2O[C@@H](C)CCCCO[C@H]1CN(C)C(=O)c1ccccc1 | i | 1.9 | -4 | -5 | -1.2
O=C(C[C@H]1CC[C@H]2[C@@H](COC[C@H](O)CN2Cc2ccc(Cl)cc2)O1)NCc1ccccc1Cl | i | 1.3 | -50 | -72 | -3.8
O=C(c1cccnc1)N(Cc1ccccc1)C(c1ccccc1)c1nc2ccccc2[nH]1 (stereo not given) | i | 1.2 | -6 | -5 | -1.2
CC(C)C#Cc1ccc([C@H]2[C@@H](C#N)N(C(=O)c3ccccn3)[C@H]2CO)cc1 | i | -0.7 | 2 | -14 | 1.1
CO[C@H](CN(C)Cc1ccc2c(c1)OCO2)[C@@H](C)CN(C(=O)Nc1ccc(F)cc1)[C@@H](C)CO | i | 2.3 | 4 | 6 | -0.2
COCC(=O)Nc1ccc2c(c1)[C@H]1C[C@H](CC(=O)NCc3ccc(-c4ccccc4)cc3)O[C@@H](CO)[C@H]1O2 | i | 0.8 | -8 | -12 | 3.0
C[C@@H]1CCCCO[C@@H](CN(C)S(C)(=O)=O)[C@@H](C)CN([C@@H](C)CO)C(=O)c2cc(NC(=O)c3ccccc3)ccc2O1 | i | -3.7 | 1 | 11 | 2.4
O=C(c1ccc(Br)cc1)N1CCN(c2ccccn2)CC1 | i | -3.2 | 5 | 8 | 1.2
O=C(C[C@@H]1CC[C@@H](NC(=O)c2ccccn2)[C@@H](CO)O1)NCc1cc(F)cc(F)c1 | i | 0.0 | 2 | 1 | -1.3
C[C@@H]1CN([C@@H](C)CO)C(=O)c2cc(C#Cc3ccncc3)cnc2O[C@H]1CN(C)S(=O)(=O)c1ccccc1F | i | -3.4 | -8 | -6 | 5.5
C[C@@H]1CN([C@H](C)CO)C(=O)Cc2cc(NC(=O)Nc3ccc4c(c3)OCO4)ccc2O[C@H]1CN(C)C(=O)Nc1ccc(C(F)(F)F)cc1 | i | 7.1 | -2 | 2 | 0.9
CC1(C(=O)NS(=O)(=O)c2ccccc2)CCN1C(=O)Cc1cccc2ccccc12 (stereo not given) | i | -1.5 | -1 | 12 | -2.0
COc1ccc(NC(=O)Nc2ccc3c(c2)C(=O)N([C@H](C)CO)C[C@H](C)[C@H](CN(C)Cc2ccc(Cl)c(Cl)c2)O3)cc1 | i | 3.8 | 1 | 1 | 1.8
COc1ccc(S(=O)(=O)NC(=O)C2(C)CCN2C(=O)C2CC2)cc1 (stereo not given) | i | -1.4 | 2 | 11 | 0.3
SMILES | FGF22 binding | MLL AF4-AF9 inh | Ecoli rRNA inh | Ecoli rRNA inh OD600 | Ecoli rRNA inh RFP
Cc1nc(NC(=O)C(C)(C)C)sc1-c1nc(N)sc1-n1cc(-c2ccccc2)nn1 | i | -2.1 | 6 | 12 | 2.5
COc1ccccc1S(=O)(=O)N(C)C[C@@H]1Oc2cc(/C=C/c3ccccc3)ccc2S(=O)(=O)N([C@@H](C)CO)C[C@H]1C | i | 4.7 | 3 | 7 | -0.4
O=C(C[C@@H]1C[C@H]2c3cc(NC(=O)Nc4ccccc4F)ccc3O[C@H]2[C@@H](CO)O1)NCc1ccncc1 | i | 1.8 | -3 | -2 | -3.2
CC(C)NC(=O)Nc1ccc2c(c1)C(=O)N([C@@H](C)CO)C[C@H](C)[C@@H](CN(C)Cc1ccncc1)OCCCC[C@@H](C)O2 | i | -1.0 | -4 | -7 | -0.8
COc1ccc(CN(C)C[C@H]2Oc3ccc(NC(=O)Cc4cn(C)c5ccccc45)cc3C(=O)N([C@H](C)CO)C[C@H]2C)cc1 | i | 8.7 | 0 | 5 | 1.7
CN(C)C(=O)C[C@@H]1C[C@@H]2c3cc(NC(=O)C4CCOCC4)ccc3O[C@@H]2[C@@H](CO)O1 | i | -3.1 | 2 | 17 | -1.9
Cc1ccc(CNC(=O)Nc2nnc([C@@H]3C[C@H](O)[C@@H](CO)O3)s2)cc1 | i | -7.7 | 4 | 10 | -4.9
C[C@@H]1CN([C@@H](C)CO)C(=O)c2cc(NC(=O)CCCCCC(=O)Nc3ccccc3N)ccc2O[C@H]1CN(C)S(=O)(=O)c1ccc(F)cc1 | i | -0.4 | -6 | -9 | -1.6
C[C@@H]1CCCCO[C@H](CN(C)Cc2ccc(C(F)(F)F)cc2)[C@@H](C)CN([C@@H](C)CO)C(=O)c2cc(NS(=O)(=O)c3cccs3)ccc2O1 | i | -5.0 | -5 | -23 | 24
COc1ccc(NC(=O)N(C)C[C@H]2Oc3ccc(NC(=O)Nc4ccccc4)cc3CC(=O)N([C@@H](C)CO)C[C@H]2C)cc1 | i | -0.7 | 1 | -8 | 0.9
CC=Cc1ccc2n(c1=O)C[C@@H]1[C@@H](CO)[C@H](C(=O)NCc3ccccc3F)N(CCC)[C@H]21 (mixture of isomers) | i | 1.3 | -5 | -13 | -0.8
CC(C)C#Cc1cnc2c(c1)C(=O)N([C@@H](C)CO)C[C@H](C)[C@H](CN(C)C(=O)CCN1CCCCC1)O2 | i | -0.1 | 1 | 7 | -1.0

Record cards (already shown):
Cc1nc(NC(=O)C(C)(C)C)sc1-c1nc(N)sc1-n1cc(-c2ccccc2)nn1 as listed: FGF22 binding: i; MLL AF4-AF9 inh: -2.1; Ecoli rRNA inh: 6; Ecoli rRNA inh OD600: 12; Ecoli rRNA inh RFP: 2.5
COc1ccccc1S(=O)(=O)N(C)C[C@@H]1Oc2cc(/C=C/c3ccccc3)ccc2S(=O)(=O)N([C@@H](C)CO)C[C@H]1C as listed: FGF22 binding: i; MLL AF4-AF9 inh: 4.7; Ecoli rRNA inh: 3; Ecoli rRNA inh OD600: 7; Ecoli rRNA inh RFP: -0.4
